# Screening results: PubChem BioAssay, several laboratories
# CSC inhib – cancer stem cell viability inhibitors, primary screen, luminescence. cancer stem cell-like cells viability. inhibition, % at 7.5 µM. 300,000 tested, 1.1% active;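 active = mean at 75% or more and at least half the replicates too; inconclusive = mean and replicates disagree; tested in HMLE shEcad cells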;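 also: 0% = median of negative and 100% = median of positive control wells; the first replicate is given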
# PABP FP inh – PABP poly(A) RNA binding inhibitors, primary screen, biochemical, fluorescence polarization, uHTS. Polyadenylate-binding protein 1 (Homo sapiens), P11940. 290,000 tested, 1% active. inhibition, % at 35 µM;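 active = 50% or more with normal probe brightness, or confirmed in later tests; inconclusive = above 50% with abnormal brightness, or retests that disagree; inactive = below 50% or failed in later tests; about a fifth of its hits are not listed in these tables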;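 also: calls also rest on retests at 20 µM and on dose response follow-up; controls were probe without protein and protein plus probe with vehicle; some compounds called inactive have numbers as strong as hits; many hits fall short of the cut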
# Yeast UUG start – modulators of yeast start codon fidelity, primary screen, whole organism, S. cerevisiae, single point, plate reader | S. cerevisiae UUG-firefly luciferase reporter, luminescence/redox ratio | activity score, % at 18.7 µM | 350,000 tested, 0.13% active | AID 602363, 2012;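 active = replicate mean at a twofold rise or more, about +100% in these data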;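 also: firefly luciferase made from a UUG start codon reports start codon fidelity; reporter light over untreated wells divided by growth signal over untreated wells; some hits fall short of that in this replicate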
# Env fusion inh – inhibitors of HIV-1 Env-driven cell-cell fusion, primary screen, HeLa-JRFL effector, CEM21 target cells, luciferase | inhibition, % at 12.3 µM | 360,000 tested, 1.1% active | AID 651610, 2012;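 active = mean replicate inhibition score of at least 50 and every replicate individually at or above 50; inconclusive = only one of the two criteria met; inactive = mean below 50 and not all replicates reaching 50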;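 also: 0% = plate neutral controls and 100% = maraviroc near 300 nM; one replicate is shown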
# eIF4H inh – human eIF4H binding inhibitors, primary screen, translation initiation inhibitor project, biochemical, uHTS, fluorescence polarization | inhibition, % at 35 µM | eIF4H fluorescence polarization binding assay | Eukaryotic translation initiation factor 4H (Homo sapiens), Q15056 | 290,000 tested, 0.94% active;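 active = 50% or more with normal probe brightness, or confirmed in later tests; inconclusive = above 50% with abnormal brightness, or retests that disagree; inactive = below 50% or failed in later tests; about a fifth of its hits are not listed in these tables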;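 also: calls also rest on retests at 20 µM and on dose response follow-up; 0% = protein and probe with vehicle and 100% = probe without protein; strong numbers were not always called active; many hits fall short of the cut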
# Rce1 inh – yeast Rce1p protease inhibitors, primary screen, biochemical, fluorescence, cell-free homogeneous. 290,000 tested, 0.27% active. AID 2563, 2010. CAAX prenyl protease 2 (Saccharomyces cerevisiae (strain ATCC 204508 / S288c)), Q03530. calls only. yeast membranes, quenched prenylated peptide cleavage fluorescence;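 active = fall in fluorescence gain of 50% or more versus controls, with final raw signal at or below 3038400; inconclusive = same 50% fall but final raw signal above 3038400; inactive = fall in fluorescence gain under 50%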;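 also: plate controls were neutral control wells for no effect and wells lacking membranes for full effect; tested at 10 µM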
# Target sequence (Q03530 whole entry, looked up): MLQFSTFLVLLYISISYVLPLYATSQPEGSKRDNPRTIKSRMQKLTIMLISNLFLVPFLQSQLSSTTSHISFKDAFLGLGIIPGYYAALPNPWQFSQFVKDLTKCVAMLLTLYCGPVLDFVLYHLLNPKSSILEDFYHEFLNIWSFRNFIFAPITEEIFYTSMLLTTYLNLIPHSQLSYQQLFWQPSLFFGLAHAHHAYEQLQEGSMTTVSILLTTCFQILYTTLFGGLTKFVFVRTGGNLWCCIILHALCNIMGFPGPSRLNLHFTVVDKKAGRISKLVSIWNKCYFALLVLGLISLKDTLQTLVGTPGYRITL
# MT1-MMP act inh – blockers of MT1-MMP proenzyme processing, primary screen, HT1080 RFP-PRO-GFP cells, GFP/RFP fluorescence | Matrix metalloproteinase-14 (Homo sapiens), P50281 | GFP/RFP ratio fluorescence, overnight; percent of plate control window, DMSO zero | GFP/RFP ratio change, % at 20 µM | 360,000 tested, 0.061% active;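 active = GFP/RFP ratio change of at least 30% with cell ATP level not reduced by more than half and red fluorescence within 50% of control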; also: strong numbers were not always called active
#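 Assay system – RFP-PRO-GFP reporter HT1080 cells · Compound dosing – single dose of 20 µM compound, 1% DMSO final · Incubation – overnight compound exposure at 37 °C · Measure – GFP/RFP fluorescence ratio · Benchmarks – DMSO wells and RFP-L50D-GFP cells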
# eIF4H inh retest – second read-out of eIF4H inh, no call of its own (marks repeat the call); inhibition, %; compound at 20 µM; confirmation average;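 mean of two retest wells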
# PABP FP inh retest – recorded beside PABP FP inh, whose call it bears; inhibition, %; compound at 20 µM; confirmation repeats;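 mean of two retest wells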
# MT1-MMP act inh RFP – recorded beside MT1-MMP act inh, whose call it bears; RFP signal change, %; measured here: RFP expression control read;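 0 = vehicle wells; hits needed this value within 50% of zero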
# * = called active by the depositor; i = inactive; ? = inconclusive; / = no result given; + = active, no number. Rows are unselected. About 2.9% of those tested had a hit in this group.
SMILES,CSC inhib,PABP FP inh,Yeast UUG start,Env fusion inh,eIF4H inh,Rce1 inh,MT1-MMP act inh,MT1-MMP act inh RFP,others
O=C(Cn1cccc1C(=O)c1ccccc1)NCCN1CCOCC1,-16,-7,-17,/,7,i,5,0,
CC(=O)c1c(C)nc2ccccc2c1N,-4,4,-9,/,-8,i,-1,9,
Cc1ccc(C)c(NC(=O)CSc2nc(=O)n(CCN3CCOCC3)c3c2CCCC3)c1,4,/,/,7,/,i,-4,-4,
CN(C)C(=O)COC(=O)c1cccc(CN2C(=O)c3ccccc3C2=O)c1,4,-3,/,6,8,i,-4,-5,
COc1cc(C(=O)N2CCN(S(=O)(=O)c3ccc(F)cc3)CC2)cc(OC)c1OC,2,-4,-2,-6,-7,i,2,0,
CCOC(=O)c1ccc(NC(=O)COc2ccc(S(=O)(=O)NC(C)C)cc2)cc1,3,-10,-11,/,-6,i,-5,-12,
Cc1ccc(C(=O)NCCc2nnc3ccc(SCC(=O)Nc4cc(C)on4)nn23)cc1,-15,-3,-8,-8,0,i,-12,-4,
CSc1cccc(NS(=O)(=O)c2ccccc2)c1,-6,-11,-2,/,-6,i,1,1,
O=C(CCNS(=O)(=O)c1ccccc1)N1CCN(c2ccccc2F)CC1,13,-4,-1,-1,-6,i,-3,-3,
Cc1cccc(OCC(=O)N(Cc2cccs2)C2CCS(=O)(=O)C2)c1C (stereo not given),-7,0,-9,30,83*,i,-1,-1,eIF4H inh retest=77*;PABP FP inh retest=30
Cc1ccc2nnc(Cl)n2n1,-1,-5,-16,/,-2,i,2,3,
CCN(C(=O)COC(=O)CCC(=O)c1cccs1)c1c(N)n(Cc2ccccc2)c(=O)[nH]c1=O,-13,/,-10,5,/,i,-12,-4,

# Continued, overlapping the part above by two compounds.
SMILES,CSC inhib,PABP FP inh,Yeast UUG start,Env fusion inh,eIF4H inh,Rce1 inh,MT1-MMP act inh,MT1-MMP act inh RFP,others
Cc1ccc2nnc(Cl)n2n1,-1,-5,-16,/,-2,i,2,3,
CCN(C(=O)COC(=O)CCC(=O)c1cccs1)c1c(N)n(Cc2ccccc2)c(=O)[nH]c1=O,-13,/,-10,5,/,i,-12,-4,
CC(=O)Oc1ccc(N(C(C)=O)S(=O)(=O)c2cc([N+](=O)[O-])ccc2C)cc1,-21,5,-18,5,10,i,4,0,
CCC1Sc2ccc(S(=O)(=O)Nc3ccc(OC)c(OC)c3)cc2NC1=O (stereo not given),-8,-14,-5,-4,-5,i,4,-29,
CCOC(=O)Cc1csc(NC(=S)NC(=O)CC(C)C)n1,5,-2,-5,3,-4,i,5,3,
COc1ccc(NC(=O)/C(C#N)=C\c2cc(OC)c(OCc3ccc(C(=O)O)cc3)cc2Br)cc1,5,8,/,7,0,i,-1,0,
O=C(Nc1nc2ccccc2s1)c1cc2c(s1)-c1ccccc1OC2,5,-4,10,-254,9,i,2,4,
CCn1c(SCC(=O)Nc2nc3c(s2)CCCC3)nnc1-c1ccccc1,-15,-1,-16,40,-1,i,-1,-4,
Cc1ccc(/C=C/C(=O)OCC(=O)NCc2ccc(Cl)cc2)o1,/,/,-13,5,/,/,3,1,
Cc1[nH]c2ccc(C(C)C)cc2c1CC(=O)O,-12,11,-9,11,16,i,-3,1,
Cc1ccc(/C(O)=C2\C(=O)C(=O)N(CCc3c[nH]c4ccccc34)C2c2cccnc2)cc1 (stereo not given),-24,25,-13,0,-4,i,0,8,
O=C(Cn1cnc([N+](=O)[O-])n1)NC1CC1,-2,11,/,10,4,i,-2,2,
Cc1ccc(-c2nn(C)c(=O)c3ccccc23)cc1CO,-10,2,-9,/,-3,i,1,3,
Cc1ccccc1CCN(C(=O)CN1C(=O)c2ccccc2S1(=O)=O)C(C(=O)NCC1CCCO1)c1ccncc1 (stereo not given),2,4,13,-45,-5,i,-8,-3,
CC[C@H]1OC(=O)[C@H](C)[C@@H](O[C@H]2C[C@@](C)(OC)[C@@H](O)[C@H](C)O2)[C@H](C)[C@@H](O[C@@H]2O[C@H](C)C[C@H](N(C)C)[C@H]2O)[C@](C)(O)C[C@@H](C)[C@@H]2N[C@@H](COCCOC)O[C@H]([C@H]2C)[C@]1(C)O,-16,8,-4,-11,-5,i,-2,3,
Cc1cccc(NC(=O)c2nc[nH]c2C(=O)N[C@@H](CCCCNC(=O)OC(C)(C)C)C(=O)OC(C)(C)C)c1,/,8,-11,18,6,i,-10,-14,
CCc1ccc(-c2cc(C)no2)cc1S(=O)(=O)NCc1ccco1,-15,14,/,3,8,i,-2,-3,
Cn1c(=O)[nH]c(=O)c2c1nc(NCCCO)n2Cc1ccc(F)cc1,-12,-9,/,/,1,i,11,9,
CC12CCC(C(=O)N(NC(=O)c3cccnc3)C1=O)C2(C)C (stereo not given),1,34,/,7,-2,i,-1,-2,
CCN(CC)c1ccc(/C=N/NC(=O)c2nnn(-c3nonc3N)c2-c2ccc(C)cc2)cc1,-4,1,-17,-8,-10,i,-1,-3,
COC(=O)C1=C(C(=O)OC)[C@@H]2N(C)c3ccc(OC)cc3[C@@]23C[C@@H](C(=O)OC)N(C(=O)C2CCC2)C3=N1,1,3,/,/,4,i,/,/,
COCCOc1cc(NC(=O)CS(=O)CC(=O)N(C)C)c(Cl)cc1Cl (stereo not given),-8,-12,/,7,3,i,4,7,
COc1ccc(C(C(=O)NC(C)(C)C)N(C(=O)CNC(=O)c2cccs2)c2ccc(C)cc2)cc1OC (stereo not given),-6,-4,16,/,-3,i,8,-2,
c1ccc(COc2cccc(CN3CCCCC3)c2)cc1,-12,1,-5,8,-2,i,3,0,
COc1ccc(NC(=O)[C@@H]2CC=C[C@@H]3CCN(Cc4ccccc4)C(=O)[C@@H]32)cc1,/,/,-15,6,/,i,8,0,
Cn1c(CCC(=O)OCC(=O)NCc2ccc3c(c2)OCO3)nc(=O)c2ccccc21,-2,0,-9,23,-8,/,-1,1,

# Structural class: those above with a COOH group
SMILES,CSC inhib,PABP FP inh,Yeast UUG start,Env fusion inh,eIF4H inh,Rce1 inh,MT1-MMP act inh,MT1-MMP act inh RFP,others
COc1ccc(NC(=O)/C(C#N)=C\c2cc(OC)c(OCc3ccc(C(=O)O)cc3)cc2Br)cc1,5,8,/,7,0,i,-1,0,
Cc1[nH]c2ccc(C(C)C)cc2c1CC(=O)O,-12,11,-9,11,16,i,-3,1,

# Following part:
SMILES,CSC inhib,PABP FP inh,Yeast UUG start,Env fusion inh,eIF4H inh,Rce1 inh,MT1-MMP act inh,MT1-MMP act inh RFP,others
CC(C(=O)Nc1cccnc1)C1Sc2ccccc2NC1=O (stereo not given),-8,0,-17,-52,-4,i,-3,5,
CC(C)Cn1c(=O)c(C(=O)NCc2ccc3c(c2)OCO3)c(O)c2ccccc21,48,12,3,10,7,i,-1,-4,
CCOc1ccccc1N(C)S(=O)(=O)c1ccc2[nH]cc(C(=O)N(CCOC)CCOC)c(=O)c2c1,-11,3,-12,-4,-3,i,0,1,
c1cnn(Cc2cnc(N3CCOCC3)s2)c1,-4,-6,/,17,30,+,0,2,
Cc1cc(C)c(NC(=O)c2cnn(C)c2)c(C)c1,-3,-6,-14,-17,1,i,-2,4,
O=C(CCCN1CCC(C(=O)c2ccc(F)cc2)CC1)c1ccc(F)cc1,-6,3,-9,16,-6,i,-5,1,
CC(C)c1ccccc1NC(=S)N(C)C,-4,7,-13,-2,-4,i,-1,4,
COc1ccccc1Nc1nc(-c2cccc(N3C(=O)c4ccccc4C3=O)c2)cs1,31,-17,/,24,7,i,3,5,
Cc1cc(C(F)(F)F)nn1CC(=O)NNC(=S)Nc1ccc(F)cc1,-12,-3,/,/,4,i,10,10,
CC(=O)Nc1ccc(NC(=O)c2cc(=O)c3ccccc3o2)cc1,-2,4,-10,29,-3,i,-6,-5,
CCC(=O)Nc1ccc(S(=O)(=O)NC[C@H]2O[C@@H](n3cnc4c(=O)[nH]c(N)nc43)[C@H](O)[C@@H]2O)cc1,/,/,-7,-17,/,/,0,5,
COc1cccc(CN2CC(C(=O)N(C)C3CCOCC3)CCC2=O)c1 (stereo not given),0,0,-7,-7,-9,i,0,2,
O=C(COC(=O)c1ccc([N+](=O)[O-])cc1Cl)NC(=O)c1ccccc1,-4,/,-8,-45,/,i,-1,1,
O=C(NC(Nc1nc2ccc([N+](=O)[O-])cc2s1)(C(F)(F)F)C(F)(F)F)c1ccccc1,98*,1,-19,81*,-9,i,-32,-32,
Cc1ccc(CSc2nc3ccsc3c(=O)n2Cc2ccccn2)cc1,9,11,-8,19,-2,i,-4,-10,
c1ccc(-c2cnc(-c3ccccn3)nn2)cc1,6,/,-30,13,/,i,9,1,
CC(=O)c1ccc(-n2nncc2C)cc1,-7,0,4,/,-7,i,-2,3,
Cc1nc(NC(=O)c2cccnc2)ccc1Br,-2,-6,-17,/,-10,i,-2,-3,
O=C(CCCn1c(SCC(=O)c2ccc(O)c(O)c2)nc2ccccc2c1=O)NCC1CCCO1 (stereo not given),1,-1,11,-32,1,i,6,-2,
Cc1nc2c(S(=O)(=O)c3ccccc3)cnn2c(C)c1C,-1,2,/,5,-4,i,6,2,
O=c1[nH]c(N/N=C\c2ccc(F)cc2)nc2ccccc12,-13,4,/,-83,-3,/,6,0,
Cc1ccc2cc(CCNC(=O)c3c(-c4ccccc4Cl)noc3C)c(=O)[nH]c2c1,2,-6,-6,-19,0,i,-3,-4,
CC(C)(C)c1ccc(C(=O)NCCc2ccccc2)cc1,17,-4,-20,-68,-1,i,-2,0,
Cc1ccc(C(=O)CN(C(=O)c2ccc(Cl)cc2)N2C(=O)c3ccccc3C2=O)cc1,/,-1,-12,-31,4,i,2,0,
CC(=O)Nc1ccc(OS(=O)(=O)c2cc(Cl)ccc2C)cc1,-6,-14,/,1,-10,i,-1,4,
CCS(=O)(=O)NCCc1cc2c(OC)ccc(OC)c2[nH]c1=O,-14,-4,-20,/,0,i,-4,-5,
CNC(=O)c1ccccc1S(=O)c1ccccc1COC(C)=O (stereo not given),-7,-8,-24,-3,0,i,3,0,
CS(=O)(=O)c1ccccc1C(=O)N1CCN(Cc2ccccc2)CC1,3,-5,-20,8,-3,i,-6,-2,
COc1ccc2c(c1)c1ncn(CCCN3CCOCC3)c(=O)c1n2C,-6,1,3,32,-6,?,13,5,
COc1cc(OC)cc(C(=O)OCn2nnc3ccccc3c2=O)c1,-17,-6,-22,-4,-1,i,2,6,
COc1ccc(S(=O)(=O)NCC2CCCN(C(=O)CCC(F)(F)F)C2)cc1 (stereo not given),1,9,4,2,-1,i,/,/,
CCOc1ccc(N2CC(C(=O)OCC(=O)NCc3ccccc3)CC2=O)cc1 (stereo not given),-8,-11,-6,/,-1,i,-3,5,
O=C(Nc1ccc(C(O)c2ccccc2)cc1)[C@@H]1O[C@H](CO)[C@@H](O)[C@H]1O (stereo not given in full),/,/,-11,2,/,/,2,4,
